Screening results as filed in PubChem BioAssay.
FEN1 inhibitor – qHTS Assay for the Inhibitors of Human Flap endonuclease 1 (FEN1). P39748. Recombinant FEN1 flap cleavage, fluorescence, 15 min. Potency, µM (series often up to 114 µM), inactives show top-dose activity change, negative = inhibition, actives largely listed as inhibitors. hit rate 0.35% among 390,000. AID 588795, 2011; also: nearly all actives have a fitted effect of over 65% in size
Target sequence (P39748 whole entry, looked up): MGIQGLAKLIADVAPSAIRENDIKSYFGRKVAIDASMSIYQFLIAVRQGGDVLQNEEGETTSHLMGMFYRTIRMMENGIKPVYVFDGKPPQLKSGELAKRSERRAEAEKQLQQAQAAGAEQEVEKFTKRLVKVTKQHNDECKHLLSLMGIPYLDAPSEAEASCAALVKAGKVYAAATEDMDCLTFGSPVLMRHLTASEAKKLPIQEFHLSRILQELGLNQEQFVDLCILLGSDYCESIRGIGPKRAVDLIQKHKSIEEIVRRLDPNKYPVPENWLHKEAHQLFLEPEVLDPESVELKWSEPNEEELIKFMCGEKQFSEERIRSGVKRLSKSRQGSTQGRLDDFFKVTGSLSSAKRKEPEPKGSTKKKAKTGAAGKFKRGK
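Nuclease activity of 10 nM FEN1 was measured after 15 min of room-temperature exposure to titrated compounds, by adding 50 nM flap substrate and reading plates at 0 and 15 min.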
N370S GC mod – qHTS Assay for Inhibitors and Activators of N370S glucocerebrosidase as a Potential Chaperone Treatment of Gaucher Disease | Lysosomal acid glucosylceramidase (Homo sapiens), P04062 | N370S GC spleen homogenate, 4MU-glucoside fluorescence | Potency, µM (series often up to 59.4 µM), inactives show at the highest dose activity change, negative = inhibition, most hits filed as inhibitors | hit rate 0.092% among 330,000;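 also: 0% = full enzyme activity and -100% = no enzyme basal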
* marks the source's active call; other numbers are inactive results; ? = inconclusive; . = not tested or not shown; & = joins results of further samples; [ ] = remark or other dose. Calls follow the shape of the dose curve; as a rule, active = well fitted curve in the direction sought with a large enough effect; inconclusive = small, poorly fitted or top-dose-only effect, or another doubt; inactive = no such curve, though single readings can be large; an effect the other way counts as inactive or inconclusive. Unless noted, % is scaled to controls: 0 for no effect and ±100 for the full control effect; potency is read from the fitted curve at half-maximal effect.

SMILES	FEN1 inhibitor	N370S GC mod
CC(C)c1nnc(NC(=O)C2CCCN2C(=O)Nc2ccccc2[N+](=O)[O-])s1 (centres undefined)	14.7%	4.7%
Cc1cccc(N2CC(C(=O)Nc3nnc(SCC(=O)NCC4CCCO4)s3)CC2=O)c1 (centres undefined)	-5.8%	-17.3%
CCOC(=O)Cc1ccc(NC(=O)N2CCC(CN3CCCCCC3)CC2)cc1	2.7%	.
Cc1ccc(C(=O)Nc2ccc(N3CCOCC3)cc2)cc1	2.4%	3.1%
CC(C)(S)[C@H](N)C(=O)O	.	2.8%
C=CCC1Cc2c(Br)cccc2C(CC=C)N1 (centres undefined)	7.3%	-4.3%
O=C(CN1CCc2ccccc2C1)NCC(=O)Nc1ccc(F)cc1	8.6%	-3.2%
O=C(O)C1=C(C(=O)Nc2cc(C(F)(F)F)ccc2Cl)CCCC1	15.1%	5.7%
Fc1ccc2c(c1)C1C=CCC1C(c1cc3c(cc1Br)OCO3)N2 (centres undefined)	-24.7%	0.8%[12.8 µM]
O=c1c(Cl)c(N2CCN(S(=O)(=O)c3ccccc3)CC2)cnn1-c1ccccc1	0.1%	1.7%
CCOC(=O)N1CCN(C(=O)CSCc2ccccc2Cl)CC1	-1.1%	0.5%
Cc1noc2ncnc(Sc3ccc(Cl)cc3)c12	-4.8%	2.2%
CCC(=O)NCCc1nc2cc(NC(=O)COc3ccccc3)ccc2n1C	0.7%	-11.4%
CCOc1ccc(NC2=CC(=O)CC(c3ccco3)C2)cc1 (centres undefined)	1.0%	-0.3%
NC1=NC(c2ccc(Br)cc2)n2c(nc3ccccc32)N1 (centres undefined)	-3.4%&-0.6%	?
CCOC(=O)C1CCN(C(=O)c2cccs2)CC1	16.3%	6.2%
Cc1noc(C)c1CSc1cc(C)c2ccccc2n1	-7.1%	-1.0%
C/C(=C\c1ccccc1)C1NC(=O)c2c(sc3c2CCCC3)N1 (centres undefined)	2.4%	-4.8%
CCCC1=Nc2cc(C(=O)NCCCOCC)ccc2Sc2ccccc21	-5.7%	-10.5%
CC(=O)Oc1ccc(NC(=O)Cc2ccccc2)c(C(=O)O)c1	9.5%	-8.4%
COc1ccc(CC(=O)Nc2c3c(nn2C(C)(C)C)CS(=O)(=O)C3)cc1OC	-0.3%	7.6%
O=C(NCc1ccccn1)C1(C(F)(F)F)C/C(=C\CCO)CCCO1 (centres undefined)	-3.6%&5.9%	-2.9%
CCOC(=O)c1c(C)[nH]c(C)c1C(=O)COC(=O)c1ccc(O)cc1	0.8%	10.2%
CCCCCCCNC1=CC(=O)CC(c2ccco2)C1 (centres undefined)	-17.2%	0.8%
CCc1nc(SCC(=O)Nc2cccc3ccccc23)[nH]c(=O)c1C	15.8%	-13.0%

17 entries from above, with bars between the fields.
Compound | FEN1 inhibitor | N370S GC mod
O=C(O)C1=C(C(=O)Nc2cc(C(F)(F)F)ccc2Cl)CCCC1 | 15.1% | 5.7%
Fc1ccc2c(c1)C1C=CCC1C(c1cc3c(cc1Br)OCO3)N2 (centres undefined) | -24.7% | 0.8%[12.8 µM]
O=c1c(Cl)c(N2CCN(S(=O)(=O)c3ccccc3)CC2)cnn1-c1ccccc1 | 0.1% | 1.7%
CCOC(=O)N1CCN(C(=O)CSCc2ccccc2Cl)CC1 | -1.1% | 0.5%
Cc1noc2ncnc(Sc3ccc(Cl)cc3)c12 | -4.8% | 2.2%
CCC(=O)NCCc1nc2cc(NC(=O)COc3ccccc3)ccc2n1C | 0.7% | -11.4%
CCOc1ccc(NC2=CC(=O)CC(c3ccco3)C2)cc1 (centres undefined) | 1.0% | -0.3%
NC1=NC(c2ccc(Br)cc2)n2c(nc3ccccc32)N1 (centres undefined) | -3.4%&-0.6% | ?
CCOC(=O)C1CCN(C(=O)c2cccs2)CC1 | 16.3% | 6.2%
Cc1noc(C)c1CSc1cc(C)c2ccccc2n1 | -7.1% | -1.0%
C/C(=C\c1ccccc1)C1NC(=O)c2c(sc3c2CCCC3)N1 (centres undefined) | 2.4% | -4.8%
CCCC1=Nc2cc(C(=O)NCCCOCC)ccc2Sc2ccccc21 | -5.7% | -10.5%
CC(=O)Oc1ccc(NC(=O)Cc2ccccc2)c(C(=O)O)c1 | 9.5% | -8.4%
COc1ccc(CC(=O)Nc2c3c(nn2C(C)(C)C)CS(=O)(=O)C3)cc1OC | -0.3% | 7.6%
O=C(NCc1ccccn1)C1(C(F)(F)F)C/C(=C\CCO)CCCO1 (centres undefined) | -3.6%&5.9% | -2.9%
CCOC(=O)c1c(C)[nH]c(C)c1C(=O)COC(=O)c1ccc(O)cc1 | 0.8% | 10.2%
CCCCCCCNC1=CC(=O)CC(c2ccco2)C1 (centres undefined) | -17.2% | 0.8%

Later entries.
SMILES	FEN1 inhibitor	N370S GC mod
Cc1ccc(N2CCN(C(=S)Nc3ccc(Cl)cc3)CC2)cc1	2.0%	0.7%
O=C(O)CCC(=O)NN1C(=O)c2ccccc2NC1c1ccco1 (centres undefined)	21.8%	1.4%
COc1ccc2c(CCNC(=O)c3ccco3)c[nH]c2c1	-6.5%	2.4%
CCOc1ccccc1CNC(=O)C1CCCN(c2nnc(C)c3c(C)n(-c4ccccc4)nc23)C1 (centres undefined)	-3.3%&-3.2%	2.4%
CCOc1ccc(NC(=O)CN2C(=O)NC(CCSC)C2=O)cc1 (centres undefined)	13.7%	2.6%
CCc1ccc(N(C(=O)CNC(=O)c2ccco2)C(C(=O)NC2CCCC2)c2cccnc2)cc1 (centres undefined)	8.2%	1.6%
Cc1nc(NC(=O)c2cccs2)ccc1Br	-5.4%	3.2%
O=C(Nc1ccc(Nc2ccccc2)cc1)C(Cl)(Cl)Cl	-23.9%	2.2%
COCc1nn2c(N)c(C#N)cnc2c1-c1ccccc1	8.5%	-1.9%
CCn1c(=O)c2cc(C(=O)N(C)c3cc(Cl)c(OC)cc3OC)sc2c2ccccc21	9.2%	.
O=C(NC1CCN(Cc2ccccc2)CC1)c1ccc(Cn2c(=O)c3ccccc3n(Cc3cccc(F)c3)c2=O)cc1	-14.0%	.
CCCNC(=O)CSc1nc(-c2cccs2)cc(C(F)(F)F)n1	-4.9%	9.7%
Cc1cccc(C(=O)Oc2coc(CSc3nnc(NC(=O)C4CC4)s3)cc2=O)c1	3.8%	0.6%
Cc1cc(C(=O)Nc2cccnc2)cs1	-12.9%	-4.9%
S=c1nc[nH]c2c1ncn2C1CCCC1	5.5%	3.7%
Cc1nn(CC(=O)Nc2ccncc2)c(C)c1[N+](=O)[O-]	-4.5%	-10.5%
Clc1ccccc1CNc1ncnc2nc[nH]c12	0.3%&13.5%&-8.1%	5.7%
CCOC(=O)c1ccc(NC(=O)CSc2ccc(-c3ccncc3)nn2)cc1	1.3%	3.5%
Cc1ccc(NC(=O)c2ncn(CC(=O)NCC(C)c3ccccc3)n2)cc1C (centres undefined)	-10.3%	.
CCOC(=O)C1(C)Oc2ccc(S(=O)(=O)CC)cc2NC1=O (centres undefined)	-2.3%	-3.5%
COc1ccc(OCC(=O)N(Cc2ccc(C)o2)C2CCS(=O)(=O)C2)cc1 (centres undefined)	-15.1%&-2.3%	-7.0%
CC(C)(C)NC(=O)C[C@H]1C[C@H](C(=O)N2CCOCC2)[C@@]2(CCC3CCCC3)c3[nH]c4cc(-c5ccco5)ccc4c3CCN2C1=O	-3.6%	.
Cc1cccc(OCC(=O)Nc2cc(NC(=O)COc3cccc(C)c3)cc(C(=O)O)c2)c1	7.6%	8.6%
Nc1ccc2nc(-c3ccccn3)[nH]c2c1	-35.9%	-13.0%
Nc1c(C(=O)NCc2ccccc2)nnn1Cc1cccc(Cl)c1	-8.9%	10.4%
SMILES	FEN1 inhibitor	N370S GC mod
COc1ccc(C2CC(=O)Oc3c(C(CCN4CCCCC4)c4ccc(N(C)C)cc4)c(OC)cc(OC)c32)cc1 (centres undefined)	-17.4%&11.1%	-21.8%&-26.6%
O=C(CC1SC(=NCCc2ccccc2)N(/N=C/c2cccs2)C1=O)Nc1ccc(Cl)cc1 (centres undefined)	-11.7%	5.6%
Cc1n[nH]c(=O)c2c(NC(=O)CSc3c(Cl)cccc3Cl)oc(C)c12	-2.3%	-0.2%
O=C(CSc1c(F)c(F)cc(F)c1F)Nc1ccc(C2SCCS2)cc1	12.5%	-7.9%
CCN(CC)c1ccc(NC(=S)NC(=O)c2cccs2)cc1	-0.7%	?
Cc1sc2ncn(CC(=O)Nc3cccc(S(N)(=O)=O)c3)c(=O)c2c1-c1ccccc1	-26.3%	2.4%
CCOC(=O)N1CCC(NC(=O)CCN2C(=O)COc3ccccc32)CC1	11.6%	3.6%
COc1ccc(C(=O)C2CCN(S(=O)(=O)c3ccc4c(c3)OCCO4)CC2)cc1	-3.5%	13.3%
CCc1ccccc1NC(=O)CN1C(=O)c2cccnc2Sc2ccccc21	13.1%	.
Cc1cc(C)cc(NC(=S)N2CCN(S(=O)(=O)c3ccccc3)CC2)c1	-20.8%	-6.0%
CC1CN(Cc2csc(-c3ccc(Cl)cc3)n2)CC(C)O1 (centres undefined)	8.3%	-4.3%
O=C(Oc1ccc(F)cc1)c1nc(SCc2ccc(F)cc2)ncc1Cl	5.0%	.
COC(=O)c1ccc(C(=O)OC)c(N)c1	.	?
Fc1ccc(CNC(=S)Nc2ccccc2Cl)cc1	9.9%	-0.6%
CCOc1ccccc1NC(=O)CCN(c1ccc(C)cc1)S(=O)(=O)c1ccccc1	4.0%	2.4%
CC1(C)CC(=O)C2=C(C1)Oc1ncn(CCO)c(=N)c1C2c1ccccc1 (centres undefined)	-6.0%	8.6%
CC1O[C@@H](O[C@H](C)CC[C@@H](C)O[C@H]2OC(C)[C@@H](O)C[C@H]2O)C(O)C[C@H]1O (some centres undefined)	-10.2%	-1.8%
O=C(NCc1cccc(C(F)(F)F)c1)C1CC(c2ccccc2C(F)(F)F)=NO1 (centres undefined)	-12.7%	-5.7%
COC(=O)C1=C(C)N(Cc2ccccc2)C(=NCc2ccccc2)N[C@H]1c1ccccc1	-7.0%	-29.5%
CCn1cc(S(=O)(=O)Nc2cc(C(=O)OC)ccc2C)cn1	4.7%	-7.6%
CC1CCC2C(=O)N3C(CCC(C)[C@@H]3c3cccc(N4CCOCC4)c3)C(=O)N2C1c1cccc(Br)c1 (some centres undefined)	.	6.9%[12.8 µM]
COc1ccc2cc(Br)ccc2c1CC(=O)N(C)C	-1.0%	-3.2%
COCCSc1ccccc1C(=O)N1CCN(c2ccccc2OC)CC1	20.2%	-4.7%
Cc1ccc2nc(NC(=O)CN3C(=O)C4CC=CCC4C3=O)sc2c1 (centres undefined)	-2.5%	12.5%
S=C(NCCCc1ccccc1)Nc1ccc(Br)cc1	-0.9%	-1.4%
SMILES	FEN1 inhibitor	N370S GC mod
CCOc1ccc(S(=O)(=O)NCCC(=O)N2CCCC(C)C2)cc1 (centres undefined)	2.7%	2.0%
COc1ccc(C(=O)OC(C)CN2CCOCC2)cc1OC (centres undefined)	6.5%	14.2%
CCC(=O)Nc1cccc(C2=NOC3(C2)C[C@@H](C(N)=O)N(C(=O)c2cc([N+](=O)[O-])cc([N+](=O)[O-])c2C)C3)c1 (some centres undefined)	8.6%	0.0%
Cc1cc(-c2ccc(Cl)cc2)oc(=O)c1NC(=O)c1ccccc1	7.6%	-7.7%
CC(=O)c1cn(S(=O)(=O)c2ccccc2)c2ccccc12	-4.2%	18.4%
CCOc1ccc(NC(=O)CSc2nc3c(c(=O)n2-c2ccccc2OC)SCC3)cc1	3.0%	1.9%
Cc1c(C)c2ccc(OCC(=O)NCCCN3CCCC3=O)cc2oc1=O	1.7%	-1.9%
CCN(c1ccccc1)c1nnc(NC(=O)Nc2cccc(Cl)c2C)s1	19.9%	.
Cn1c(=O)c(C(=O)COC(=O)c2cc(C(F)(F)F)nc3c(C(F)(F)F)cccc23)c(N)n(CC2CC2)c1=O	.	-0.7%&8.1%
CCCn1nc(NC(=O)C2CCCO2)c2cc3ccc(C)cc3nc21 (centres undefined)	16.4%	4.7%
Cn1cc2cc(NC(N)=S)ccc2n1	0.9%	2.6%
O=C(O)CCCC(=O)Nc1ccc(Br)cc1C(=O)O	6.6%	-0.4%
O=C(Nc1ccc2oc(-c3cccnc3)nc2c1)c1ccc(-c2cccc(OC(F)(F)F)c2)o1	-4.0%	.
COc1ccccc1CNC(=O)C(C)c1ccc([N+](=O)[O-])cc1 (centres undefined)	14.1%	14.6%
CN(C)C(=S)c1ccc(N(C)C)cc1	-4.5%	1.6%
COc1ccccc1NC(=O)/C=C1\SCC(=O)N1C	-3.5%	7.8%

These rows are one share of the data; most or all hits stand in other tables.
